Screening results (PubChem)
CtBP-E1A blk: qHTS Assay for Inhibitors of the CtBP/E1A Interaction. CtBP / adenovirus E1A interaction (AlphaScreen). AlphaScreen GST-E1A/His-CtBP binding, 1536-well; stronger effect = lower value; control for the full effect not named in the record. activity change, % (concentration not given with the values). 0.49% of 340,000 active. AID 651724, 2012; in the data active means activity change below about -65%; inconclusive means about -30% to -65%; inactive means above about -30%; note: % is set by controls: 0 for no effect and ±100 for the full control effect
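In 5 uL wells, 23 nL compound meets equimolar GST-E1A and His-CtBP (5X stock 125 nM each) for 2 h, 37 °C. Beads (5X, 50 ug/mL) then 1 h, 37 °C, dark.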
TRPML1 agonist: qHTS for Agonists of the Human Mucolipin Transient Receptor Potential 1 (TRPML1); TRPML1-expressing cells, Ca2+ dye fluorescence, FDSS; host cell line not named in the record; reference of the full effect not given here; activation, % (no concentration beside the values); 0.12% of 410,000 active; AID 624414, 2012; Mucolipin-1 (Homo sapiens), Q9GZU1; in the data active = activation above about 50%; inconclusive = about 30% to 50%; inactive = below about 30%; note: 0% is about no effect; the text of the record puts the active cut at 80%
Target sequence (Q9GZU1 whole entry, looked up): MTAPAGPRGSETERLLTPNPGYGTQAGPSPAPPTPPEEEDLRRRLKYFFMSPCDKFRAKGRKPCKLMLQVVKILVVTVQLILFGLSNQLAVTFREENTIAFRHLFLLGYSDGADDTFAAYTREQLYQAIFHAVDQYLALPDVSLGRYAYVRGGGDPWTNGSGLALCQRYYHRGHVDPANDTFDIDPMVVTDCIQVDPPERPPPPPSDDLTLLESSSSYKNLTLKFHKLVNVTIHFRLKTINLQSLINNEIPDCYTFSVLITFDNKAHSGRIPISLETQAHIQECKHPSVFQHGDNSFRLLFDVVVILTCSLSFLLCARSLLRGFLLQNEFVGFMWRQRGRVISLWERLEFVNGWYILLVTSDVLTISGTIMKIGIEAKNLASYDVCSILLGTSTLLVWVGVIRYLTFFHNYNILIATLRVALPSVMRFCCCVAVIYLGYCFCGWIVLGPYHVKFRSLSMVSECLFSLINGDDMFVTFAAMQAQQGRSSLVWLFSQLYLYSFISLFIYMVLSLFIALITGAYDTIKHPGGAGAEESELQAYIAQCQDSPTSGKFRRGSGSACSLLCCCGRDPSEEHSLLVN
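Kinetic FDSS Ca2+ read in Tet-induced TRPML1-DL cells (ABD Ca8 dye plus quencher, 45-90 min RT loading): baseline, then compound, then 110 s agonist window; EC80 agonist 54-4 at 4uM final added afterwards for a 110 s antagonist window.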
PINK1 expr mod: A Quantitative High throughput Screen to Identify Chemical Modulators of PINK1 Expression. PINK1 immunofluorescence, high-content cytometry, 24 h. Potency, µM (titrated, usually from 76.6 µM), for inactives: top-dose activation (PINK1 increase), most hits filed as activators. 0.2% of 410,000 active; active = well fitted activation curve with a large enough effect; inconclusive = small, poorly fitted or top-dose-only effect; inactive = flat fitted curve, though single readings scatter; cell line not stated here;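 note: potency is the fitted concentration of half-maximal effect; % of control where 0% means no effect; nearly all actives have a fitted effect of over 65% in size; a mitochondrial uncoupler was the plate control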
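PINK1 protein, normally rapidly degraded, was detected by immunofluorescence after 24 hour compound treatment of a stable cell line. Titration data (5 concentrations) came from laser-scanning cytometry, with CCCP-treated wells as controls.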
TRPML1 inh: qHTS for Inhibitors of the Human Mucolipin Transient Receptor Potential 1 (TRPML1); Mucolipin-1 (Homo sapiens), Q9GZU1; TRPML1-inducible cells, Ca2+ dye fluorescence, FDSS; stronger effect = lower value; inhibition of EC80 agonist-evoked calcium signal; activity change, negative = inhibition, % (concentration not given with the values); 0.02% of 390,000 active; AID 624415, 2012; in the data active means activity change below about -50%; inconclusive means about -30% to -50%; inactive means above about -30%;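 note: stimulus is agonist 54-4 at its EC80 concentration; % is set by controls: 0 for no effect and ±100 for the full control effect; compound concentration not given in the record; the text of the record puts the active cut at -80%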
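Tet-induced TRPML1-DL cells loaded with Ca8 no-wash calcium dye were read kinetically on FDSS. Compound addition was followed by EC80 agonist 54-4 (4 uM final); inhibition was read over 110 s.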
Six1-Eya2 inh: qHTS Assay for Inhibitors of the Six1/Eya2 Interaction | activity change, % (test concentration not listed) | 0.56% of 360,000 active | Homeobox protein SIX1 (Homo sapiens) + Protein phosphatase EYA2 (Homo sapiens), … | AID 651725, 2012 | AlphaScreen GST-Six1/His-Eya2 binding, biochemical; stronger effect = lower value; control for the full effect not named in the record; in the data active = activity change below about -65%; inconclusive = about -30% to -65%; inactive = above about -30%; note: % is set by controls: 0 for no effect and ±100 for the full control effect; compound concentration not given in the record
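Homogeneous AlphaScreen proximity assay pairing GST-Six1 with His-tagged Eya2 (added as 5X mix: 250 nM and 500 nM) in 50 mM Tris pH 8.0, 300 mM NaCl, 1 mM TCEP. Glutathione donor and nickel acceptor beads; 1 h, 37 °C, dark.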
D2 agonist: Beta-Arrestin HTS for Positive Allosteric Modulators of the Human D2 Dopamine Receptor: Agonists | D(2) dopamine receptor (Homo sapiens), P14416 | DiscoveRx PathHunter D2 beta-arrestin, luminescence, 90 min; 100% = 57 uM dopamine signal | activation, % (test concentration not listed) | 0.084% of 360,000 active | AID 624465, 2012; in the data active = activation above about 40%; inconclusive = about 15% to 40%; inactive = below about 15%; note: compound concentration not given in the record; the text of the record calls up to 30% inactive
Target sequence (P14416 whole entry, looked up): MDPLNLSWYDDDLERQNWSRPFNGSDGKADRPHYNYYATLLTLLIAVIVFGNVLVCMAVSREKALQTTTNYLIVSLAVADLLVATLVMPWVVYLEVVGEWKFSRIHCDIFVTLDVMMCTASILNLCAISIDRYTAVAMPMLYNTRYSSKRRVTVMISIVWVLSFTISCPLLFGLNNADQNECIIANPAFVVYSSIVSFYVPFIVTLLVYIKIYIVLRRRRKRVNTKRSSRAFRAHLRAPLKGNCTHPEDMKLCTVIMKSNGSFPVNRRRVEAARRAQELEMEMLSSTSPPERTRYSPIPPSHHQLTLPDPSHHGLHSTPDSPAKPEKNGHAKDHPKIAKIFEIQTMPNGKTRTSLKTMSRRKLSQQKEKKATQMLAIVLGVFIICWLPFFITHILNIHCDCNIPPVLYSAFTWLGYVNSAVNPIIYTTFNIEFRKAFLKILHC
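Agonist mode: compounds alone added to overnight-plated D2 PathHunter cells for 90 min at 37 C, with 57 uM final dopamine (EC100) defining full response. Beta-arrestin recruitment detected by chemiluminescent reagent, read after 1 h at ambient temperature.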
The depositor's hits bear a star; u = inconclusive; x = no result given; [ ] = dose if it differs, or a comment. An unsorted share of the library; any-hit rate near 1%.

Below each compound – CtBP-E1A blk, TRPML1 agonist, PINK1 expr mod, TRPML1 inh, Six1-Eya2 inh, D2 agonist
> Cc1cc(=O)[nH]c(SCC(=O)Nc2ccnc3ccccc23)n1
  -9, 1.1, 1.1%, 10, -1, 3.4
> Cc1ccc2nc(C)c(C(=O)N/N=C/c3ccc(C(=O)O)cc3)cc2c1
  1, 0.7, -3.1%, -13, -2, 2.3
> COC(=O)Cn1c(=O)c2c(nc3n2CCCN3CCc2ccc(OC)c(OC)c2)n(C)c1=O
  -10, x, 2.2%, x, 0, -7.6
> Cc1ccc(F)c(S(=O)(=O)NC(=O)C2(C)CCN2C(=O)Cc2ccccc2)c1 (stereo not given)
  -4, 0.1, -0.4%, 0, 7, -3.1
> Cc1c(C(=O)N(C)C2CCCCC2)sc2ncnc(N3CCN(c4ccccc4F)CC3)c12
  -12, -0.4, 4.3%, 6, -10, -4.4
> C[C@H](NC(=O)[C@@H]1Cc2ccccc2CN1C(=O)OC(C)(C)C)C(=O)NCC1CCCO1 (stereo not given in full)
  4, 3.4, -0.6%, -9, 10, 7.8
> O=C(C1COc2ccccc2O1)N1CCN(S(=O)(=O)c2cc(F)ccc2F)CC1 (stereo not given)
  -5, 4.4, -0.3%, 7, 3, 8.0
> O=C(O)[C@H](Cc1ccccc1)NC(=O)C(c1ccccc1)(c1ccccc1)c1ccccc1
  5, 0.1, -0.2%, -11, 5, -1.8
> COc1ccncc1-c1ccccc1C1=CC(=O)CC(C)(C)C1=O
  -4, -0.7, 3.0%, 14, 0, -9.8
> Cn1c(SCC(=O)n2c3c(c4ccccc42)CCCC3)nnc1-c1ccccc1
  1, -0.4, x, 40, 4, -4.4
> O=C(Oc1ccc2ccc(=O)oc2c1)C1CCCCC1
  10, 1.6, -0.5%, 30, 10, -0.6
> CCN=C1SC(CC(=O)NC(C)c2ccccc2)C(=O)N1CC (stereo not given)
  1, -0.1, -0.3%, -14, 10, 4.2
> Cc1ccc(N2C(=O)CC(Sc3ccccc3C(=O)O)C2=O)cc1 (stereo not given)
  -8, 1.1, 0.1%, -4, 3, -1.1
> O=C(O)C(c1ccccc1)C1(O)CCCC1 (stereo not given)
  -3, -0.8, -0.4%, -5, 0, -3.9
> CCOc1ccccc1NC(=O)NCCc1c[nH]c2ccccc12
  -5, 1.3, 4.6%, -21, -10, 1.7
> CCOc1nc(-c2ccccc2)ncc1Oc1ccccc1
  32, 3.1, u, 0, 37, -3.9
> CCCc1cc(=O)oc2c(C)c(OC(C)C(=O)NCC(O)c3ccccc3)ccc12 (stereo not given)
  2, -1.2, 1.9%, -9, 0, 0.6
> COC(=O)c1c(C)nc2ccccc2c1C(=O)O
  7, -0.6, -2.4%, -2, 6, -6.3
> COC(=O)c1ccc(NC(=S)NNC(=O)CC(C)C)cc1
  8, -0.5, 0.9%, -2, 3, -6.3
> CCSc1nnc(NC(=O)c2cc(=O)c3cc(C)c(C)cc3o2)s1
  x, 0.7, 1.0%, -10, x, x

Carrying on.
Below each compound – CtBP-E1A blk, TRPML1 agonist, PINK1 expr mod, TRPML1 inh, Six1-Eya2 inh, D2 agonist
> C=CCn1c(SCC(=O)Nc2cc(C)nn2-c2ccccc2)nnc1C1CCCCC1
  5, -0.3, 70%[38.3 µM], 8, 3, -1.7
> Cc1cccc(OCC(=O)Nc2ccccc2-c2ccccc2)c1
  2, 1.6, u, 2, 19, -1.3
> COc1c(Cl)cc(Cl)cc1C(=O)Nc1ccc(NC(=O)c2cccs2)cc1
  8, 0.3, 8.6%[38.3 µM], 2, -13, -2.5
> Nc1nc(Nc2ccccc2F)sc1C(=O)c1ccccc1
  -11, 1.4, -0.4%, -28, -1, -26
> COc1ccc(C(CNC(=O)C(=O)NC2CCCC2)N2CCN(C)CC2)cc1 (stereo not given)
  -7, 1.5, 3.9%, 5, 6, -5.9
> CC(=O)c1ccc(OCC(O)CNCc2ccc3c(c2)OCO3)cc1 (stereo not given)
  0, 0.8, -1.8%, 54, -8, -0.1
> Cc1sc2nc(-c3cccnc3)nc(Cl)c2c1-c1ccccc1
  6, 0.1, 22%, 27, 6, 0.0
> CCOC(=O)C1=C(C)N(C[C@@H]2CC[C@@H](Cc3ccc(-c4ccccc4)cc3)O2)C(=O)NC1c1ccc(Cl)cc1 (stereo not given in full)
  -15, -0.3, 11%, -8, -28, -1.9
> O=C(CSc1n[nH]c(=O)[nH]c1=O)Nc1c(Cl)cc(Cl)cc1Cl
  8, -0.5, 1.8%, 6, -1, -6.2
> CCOc1cc(NC(=O)CC(C)C)c(OCC)cc1NC(=O)CCn1nnc2ccccc21
  -1, -1.1, -2.0%, 17, 4, -1.2
> Cc1cc(NC(=O)c2cccc([N+](=O)[O-])c2)no1
  13, 0.6, 5.4%, 3, -1, -0.9
> COc1ccc2[nH]c3c(c2c1)CCN1C(=O)C(CC(=O)NCCC2=CCCCC2)C[C@H](C(=O)N2CCCCC2)[C@@]31C (stereo not given in full)
  -16, -0.6, 2.4%, 7, 4, -5.1
> CC(C)c1nnc(NC(=O)CC23CC4CC(CC(C4)C2)C3)s1
  3, 0.3, 22%, 10, 2, -7.0
> Cc1ccc(NC(=O)CSc2ccccc2NC(=O)c2cccc(Cl)c2)cc1Cl
  -15, 1.3, 1.5%, -4, 0, -1.3
> CCCCn1c(=O)nc2n(-c3ccccc3C)c3ccccc3cc-2c1=O
  0, -0.9, 4.1%, 2, 0, -6.7
> COc1ccc(Cl)cc1C(=O)NNC(=O)COC(=O)c1cccs1
  -3, 1.7, -1.7%, -13, 4, -2.8
> CC(=O)Nc1ccc(NS(=O)(=O)c2cc(-c3n[nH]c(=O)c4ccccc34)ccc2C)cc1
  -22, 0.3, u, 16, -18, -2.0
> CC1=CC(C)(C)N(C(=O)c2ccc(F)cc2)c2cc3c(cc21)OCO3
  u, 22, 11%, -16, u, -4.7
> Cc1ccc(C2c3c(oc4ccccc4c3=O)C(=O)N2c2ccc(C)cn2)cc1 (stereo not given)
  x, 0.7, 0.6%, 2, x, x
> COC(=O)c1cc(OC)c(OC)cc1NC(=O)c1ccccc1C
  x, 0.8, 0.6%, -9, 2, -2.8

An excerpt of these results, as tab-separated lines.
Molecule	CtBP-E1A blk	TRPML1 agonist	PINK1 expr mod	TRPML1 inh	Six1-Eya2 inh	D2 agonist
COC(=O)c1ccc(NC(=S)NNC(=O)CC(C)C)cc1	8	-0.5	0.9%	-2	3	-6.3
CC(C)c1nnc(NC(=O)CC23CC4CC(CC(C4)C2)C3)s1	3	0.3	22%	10	2	-7.0

More results
Below each compound – CtBP-E1A blk, TRPML1 agonist, PINK1 expr mod, TRPML1 inh, Six1-Eya2 inh, D2 agonist
> O=C(COC(=O)CCN1C(=O)C2CC=CCC2C1=O)NCCc1ccccc1 (stereo not given)
  1, 0.0, 1.7%, 13, 2, -2.9
> COc1cc(NC(=O)COC(=O)CC(NC(C)=O)c2ccccc2)cc(OC)c1 (stereo not given)
  0, -0.5, -1.1%, 5, 5, -0.9
> COc1ccc(/C(CC2OC(=O)c3ccccc32)=N\NC(N)=O)cc1 (stereo not given)
  -3, -0.6, -0.7%, 31, 1, -1.9
> COc1ccc(CN(C(=O)Nc2cccc(Cl)c2)c2ccccn2)cc1OC
  x, 1.4, -0.9%, 31, x, x
> NNC(=O)c1cccc(COc2cccc(Br)c2)c1
  -22, 3.0, 22%[38.3 µM], 31, 0, 0.3
> Cc1ccc(-n2nc(C(=O)NCc3ccc(F)cc3Cl)c3c4ccccc4n(C)c3c2=O)cc1
  x, 0.1, 0.6%, -7, x, x
> CC(=O)C1=C(O)CCC1=NCCc1ccccc1
  8, 0.1, x, -2, 0, -1.3
> CC1(C)OC2OC(COC(=O)c3ccccc3)C3OC(C)(C)OC3C2O1 (stereo not given)
  12, 0.0, 0.3%, 6, -6, -1.0
> Cc1ccc(S(=O)(=O)Nc2ccccc2CNC2CCCCC2)cc1
  9, 14, -1.0%, 11, 0, -1.3
> COC(=O)CCCC1=CC2=C(c3ccccc3)C(=O)C(C)(OC(=O)C3CCCC3)C(=O)C2=CN1CC1CC1 (stereo not given)
  x, -0.3, 0.5%, -8, -11, 1.4
> COc1ccc2c(CNC3CCC(C)CC3)c(C(=O)O)n(Cc3ccccc3)c2c1 (stereo not given)
  x, 0.0, 0.3%, -11, x, x
> Cc1ccc(NC(=O)CN(C)C(C)C(=O)Nc2ccc(S(=O)(=O)N3CCCC3)cc2)cc1 (stereo not given)
  3, -0.3, 2.9%, 5, 0, 0.4
> O=C(Nc1ccc(Cl)cc1)C1CCCC1
  x, -1.0, 1.2%, -15, 0, -1.1
> CCC(=NNC(=O)c1ccc2c(c1)nc(C)n2CC)c1cc(F)ccc1O
  u, -0.3, -5.3%, 10, -17, -3.4
> O=C(Cn1[nH]c(=O)c2ccccc2c1=O)OCC(=O)c1ccccc1Cl
  -21, 0.1, 0.7%, -13, 9, -7.2
> CCOC(=O)c1c[nH]n(-c2ccc(C)cc2)c1=O
  0, -0.6, 1.1%, 3, -4, 0.7
> Cc1cccc(-c2nnc(SCCOc3ccc4c(C)cc(=O)oc4c3)o2)c1
  -2, -0.7, 1.2%, -11, 6, -1.9
> O=C(CCCOc1ccc(Cl)cc1)N1CCCCCC1
  15, -0.3, -1.0%, 6, 6, 0.2
> CC(C)(C)S(=O)N1Cc2cc(CO)ccc2[C@@H]1CCO (stereo not given in full)
  3, -0.6, -0.4%, 2, 29, 1.9
> O=C(NC(=S)Nc1cc([N+](=O)[O-])ccc1O)c1cccnc1
  x, 1.0, 2.1%, -8, 3, -7.5

The listing continues:
Below each compound – CtBP-E1A blk, TRPML1 agonist, PINK1 expr mod, TRPML1 inh, Six1-Eya2 inh, D2 agonist
> CCOc1ccc(NC(=O)CCC(=O)NNC(=O)c2cccc([N+](=O)[O-])c2)cc1
  -2, -0.4, 1.7%, 18, 0, 1.8
> CCOC(=O)N/N=C/c1ccc(N(CC)CC)cc1O
  -5, 3.3, 4.8%, 10, -13, -2.7
> CCC(C)(C)n1nnnc1CN1CCSCC1
  -10, -0.1, x, -1, 1, -1.0
> Cc1cc(NC(=O)CSc2nnc(-c3cccnc3)n2C)no1
  8, 1.2, u, 0, 2, -1.1
> CCOC(=O)C1(CCOC)CCN(C2C3CC4CC(C3)CC2C4)CC1 (stereo not given)
  2, 0.2, 2.2%, 58, 2, -2.3
> Cc1c(N/C(=N/S(=O)(=O)c2cc([N+](=O)[O-])ccc2Cl)c2ccccc2)c(=O)n(-c2ccccc2)n1C
  22, -0.1, 1.4%, 12, 2, 2.7
> N#Cc1ccc(Cl)cc1NC(=O)CNc1cccc(S(=O)(=O)N2CCCC2)c1
  1, 1.1, -2.9%, -5, 0, 2.4
> O=C(CNS(=O)(=O)c1cccc2nsnc12)NC1CCCCC1
  4, 0.3, -1.7%, 2, 2, -1.2
